# Compound activity deposited in PubChem BioAssay by several laboratories.
# Mtb betalactam = beta-lactam sensitization of Mtb H37Rv | M. tuberculosis H37Rv growth with meropenem, percent inhibition; hits of this screen are not shown here | inhibition, % at 25 µM | actives 0.27% (n = 330,000) | AID 434955;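 active = about 74% or more and at least 40 points above the plate without the antibiotic, then above 30% in a dose series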;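 note: growth measured after seven days incubation then overnight dye step; 0% = bacteria only wells and 100% = bacteria with antibiotic; twin plates without the antibiotic show which effects depend on it; some results filed as inactive read as strong as hits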
# YopH inh = YopH (Yersinia) phosphatase inhibition; AID 898; actives 0.16% (n = 140,000); inhibition, %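 (about 10 µM by stock and volumes)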; fluorescence Ex485/Em525;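 active = inhibition of 50% or more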;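 note: controls were vehicle for no effect and minimum signal wells for full effect; inactives centre near -20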
# Arbovirus anti = blocks arbovirus infection. arbovirus infection cell-based antiviral screen. inhibition, % at 10 µM. actives 0.37% (n = 200,000). AID 1251;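 active = inhibition from about 30%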;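 note: bluetongue infection of BSR cells; cell survival read as ATP light after 72 h; 0% = infected wells without compound and 100% = uninfected wells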
# RecA intein inh = blocks M. tuberculosis RecA intein splicing; P9WHJ3; cell-free RecA intein splicing, fluorescence; inhibition, %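 (about 9 µM by stock and volumes)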; actives 0.75% (n = 290,000); AID 2221; in the data active = inhibition above about 30%;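 note: 0% = vehicle wells and 100% = reference inhibitor control wells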
# Target sequence (P9WHJ3 whole entry, looked up): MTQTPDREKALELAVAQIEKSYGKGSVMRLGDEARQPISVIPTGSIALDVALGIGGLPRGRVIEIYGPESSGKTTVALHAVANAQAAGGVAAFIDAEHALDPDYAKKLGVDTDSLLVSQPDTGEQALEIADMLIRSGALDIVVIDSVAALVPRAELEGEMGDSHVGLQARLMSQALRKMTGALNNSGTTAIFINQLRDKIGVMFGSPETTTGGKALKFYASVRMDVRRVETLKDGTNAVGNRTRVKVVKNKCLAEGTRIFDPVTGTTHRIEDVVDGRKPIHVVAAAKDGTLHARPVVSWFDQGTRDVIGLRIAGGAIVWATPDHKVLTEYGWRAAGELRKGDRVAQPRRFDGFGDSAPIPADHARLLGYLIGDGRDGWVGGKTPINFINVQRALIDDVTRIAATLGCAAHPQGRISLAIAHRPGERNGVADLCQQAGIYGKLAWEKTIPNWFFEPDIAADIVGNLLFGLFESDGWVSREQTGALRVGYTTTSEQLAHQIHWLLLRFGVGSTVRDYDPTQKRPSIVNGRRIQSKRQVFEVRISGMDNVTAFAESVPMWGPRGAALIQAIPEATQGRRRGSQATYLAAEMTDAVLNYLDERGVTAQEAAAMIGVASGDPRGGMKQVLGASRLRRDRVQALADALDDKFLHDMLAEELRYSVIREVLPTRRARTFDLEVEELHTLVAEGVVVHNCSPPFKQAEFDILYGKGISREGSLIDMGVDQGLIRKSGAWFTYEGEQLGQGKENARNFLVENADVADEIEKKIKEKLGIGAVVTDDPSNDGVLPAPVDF
# Mtb H37Rv = M. tuberculosis H37Rv growth inhibitors, H37Rv strain (AID 1626). M. tuberculosis H37Rv growth inhibition; higher % means a stronger effect. one-dose inhibition, % at 10 µM; IC50 in µM for titrated hits. actives 0.95% (n = 220,000);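 active = confirmed in a dose series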;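 note: bacteria incubated seven days before Alamar blue readout; 0% = bacteria only wells and 100% = bacteria with antibiotic wells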
# Arbovirus anti repeat = second read-out of Arbovirus anti, no call of its own (marks repeat the call); inhibition, %; measured here: 10K subset replicate screen; many hits read low in the repeat;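 first of two repeat runs on a subset; 0% = infected and 100% = uninfected wells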
# The depositor's hits bear a star; . = no result given. A portion of the library. The share of hits here may be higher or lower than overall.
SMILES,Mtb betalactam,YopH inh,Arbovirus anti,RecA intein inh,Mtb H37Rv,others
CSC(=NC(C)c1ccccc1)NS(=O)(=O)c1cccs1 (configuration not stated),4,-18,-11,2.7,-7%,
CSC(=NC#N)N1CCN(c2cccc(Cl)c2)CC1,1,-33,-1,7.8,-16%,
COC(=O)c1ccc(CSc2nnc(NC(C)C)s2)cc1,-6,-7,10,3.0,5%,
CCN1CCN(CCCNC(=O)C2CCN(c3nnc(-n4cccc4)s3)CC2)CC1,4,.,.,0.9,.,
Cc1ccc(C(=O)O)cc1NC(=O)Nc1ccc2c(c1)OCO2,-5,.,-3,-7.5,-11%,
COc1ccc(NC(=O)CCc2c(C)nc3nc(CNC(=O)c4cccc(F)c4)nn3c2C)cc1OC,-5,.,.,2.2,.,
O=C(Nc1ccccc1O)c1ccc(C(=O)c2ccccc2)o1,-2,.,.,0.0,.,
Cc1cc(C=O)c(C)n1-c1cc(C(F)(F)F)ccc1N1CCOCC1,-2,-13,-13,.,.,
Nn1c(SCc2cccc(Br)c2)nnc1-c1ccncc1,6,.,.,-4.6,-5%,
Cc1nn(CC(=O)N2CCOCC2)c(=O)c2c1sc1ccccc12,11,.,.,-1.9,.,
Cc1ccc(-c2n[nH]c(=O)c3ccccc23)cc1N,4,-3,5,2.6,-3%,
CCOc1cccc2sc(NC(=O)c3ccc(Br)s3)nc12,3,-39,8,-4.9,55%,Arbovirus anti repeat=0
COc1ccc(NC(=O)c2ccc(F)c(F)c2)c2ccccc12,95,.,.,-0.9,.,
COC(=O)c1ccccc1NC1=C/C(=N\S(=O)(=O)c2ccc(C(=O)O)cc2)c2ccccc2C1=O,53,.,.,63*,.,
Cc1cc(C)n(-c2ccc(C(=O)Nc3sccc3C(N)=O)cc2)n1,6,-29,-16,6.4,8%,
Cc1cc(NCCCO)n2nc(-c3cccs3)cc2n1,-2,.,-8,-0.8,1%,
COc1ccc(/C=C(/NC(=O)c2ccco2)C(=O)N2CCCC2=O)cc1,-5,.,1,2.7,-1%,
CCn1nc(C)c(Br)c1-c1nc(-c2ccc(C)cc2)no1,6,.,.,.,1%,
O=C(NCc1cccs1)C(=O)NCC1OCCCN1S(=O)(=O)c1ccc(F)cc1 (configuration not stated),2,-21,2,1.1,76%,
N#CC(c1nc2ccccc2nc1OCCO)S(=O)(=O)c1ccccc1 (configuration not stated),-10,.,.,-2.5,-7%,
Cc1ccc(/C=N/n2c(C)nnc2C)o1,0,-29,-1,-1.8,-6%,
COc1cc(C(=O)OC(C)C(=O)Nc2ccc3c(c2)OCO3)ccc1OCc1c(C)noc1C (configuration not stated),21,-29,-9,-0.6,-7%,
Nc1c(C(=O)O)sc2nc(-c3ccc(F)cc3)cc(-c3ccccc3)c12,-4,.,.,-1.2,4%,
COc1cc(NC(=O)CCCNC(=O)Cn2cnc3sc4c(c3c2=O)CCCC4)cc(OC)c1OC,-1,.,.,-0.6,.,
CSc1n[nH]c(NCc2cccs2)n1,-6,-18,2,3.6,-2%,
# Next section.
SMILES,Mtb betalactam,YopH inh,Arbovirus anti,RecA intein inh,Mtb H37Rv,others
O=C(C1CCC1)N1CCC(O)(c2cccc(F)c2)CC1,-16,.,9,1.1,3%,
CCCCc1cc2c(c(NC(C)=O)n1)c(=O)oc1ccccc12,1,-27,4,0.0,0%,Arbovirus anti repeat=-3
O=C(N/N=C/c1cccnc1)c1ccc2c(c1)OCO2,4,.,.,-1.1,.,
COc1ccc(N(C)S(=O)(=O)c2cccc3nsnc23)cc1,-4,.,-3,0.2,12%,
NC(=O)CCn1nc(-c2ccc(Cl)cc2)c2ccccc2c1=O,72,16,-2,1.5,6%,
COc1ccc(N(CC(=O)NCc2ccc3c(c2)OCO3)S(=O)(=O)c2ccccc2[N+](=O)[O-])c(OC)c1,-2,.,.,-0.9,.,
CC(=O)c1ccc(N2CCN(C(=O)c3ccco3)CC2)c(F)c1,0,-9,-3,-1.1,1%,
CCN(CC)c1ccc(C=Nc2ccc(N(C)C)cc2)c(O)c1,-5,-14,0,-2.9,0%,
Cc1cccc(-c2ncc(CN3CCC(CO)(CCCc4ccccc4)CC3)cn2)c1,95,.,10,-0.7,13µM*,
CC1(C)OC(C)(C)/C(=C/Nc2ccccc2)C1=O,2,1,-3,-8.7,-3%,
COc1ccc(C)cc1S(=O)(=O)N(C)CC(=O)NC1CCCCCC1,2,.,-1,2.4,6%,
COc1cc(NC(=O)c2cc(-c3ccc(C)cc3)on2)cc(OC)c1OC,3,.,.,-1.7,.,
Cc1ccc(NC(=O)COC(=O)CN2C(=O)NC(C)(C)C2=O)cc1S(=O)(=O)N1CCOCC1,-11,.,23,-0.3,-15%,
CC(=O)OCC(OC(C)=O)C(OC(C)=O)C(OC(C)=O)C(=O)Nc1ccccc1C (configuration not stated),-1,-5,2,-5.5,-4%,
O=C(COc1ccc(Cl)cc1)N1CCN(c2ccc([N+](=O)[O-])c(N3CCCCC3)c2)CC1,10,-5,13,-0.1,17%,
CCCc1c(C)nc2ccc(OC)cc2c1SCCC(=O)O,-2,-54,7,-4.5,8%,
COc1ccc(-n2c(Cc3cccn3C)nnc2SCC(=O)Nc2cc(C)cc(C)c2)cc1,-6,-37,-6,0.7,-9%,
O=C(CSc1nnc(Cc2ccccc2)n1C1CCCCC1)N1CCOCC1,-7,-2,4,0.3,-13%,
COc1cc(/C=N/NC(=O)c2nc(C)cc(C)n2)ccc1O,2,-5,-3,-4.4,1%,
Cc1cc2cc(CN(Cc3ccc4c(c3)OCO4)Cc3nnnn3C3CCCC3)c(=O)[nH]c2cc1C,2,-50,-3,-0.8,8%,
COC(=O)c1ccc(=O)n(CC(=O)c2ccc(Cl)cc2)c1,0,.,7,-0.4,-1%,
O=C(CCCCC(=O)Nc1c(I)cc(I)c(C(=O)O)c1I)Nc1c(I)cc(I)c(C(=O)O)c1I,14,.,.,1.3,-9%,
COc1ccc(NC(=O)CN2CCOCC2)cc1,7,-15,5,-1.6,-8%,
COc1cc(OC)cc(C(=O)NCCCNC(=O)c2ccccn2)c1,-6,.,.,-0.9,.,
CC(C)(C)c1cc(C(=O)Nc2ccccc2)ccn1,-6,-39,3,-0.1,-12%,
# Carrying on:
SMILES,Mtb betalactam,YopH inh,Arbovirus anti,RecA intein inh,Mtb H37Rv,others
CCn1ccc(C(=O)Nc2ccc(S(=O)(=O)Nc3ccccc3OC)cc2)n1,-18,-20,-3,-4.2,-10%,
CC(C)Oc1ccc(CN2CCC(n3nccc3NC(=O)c3cccnc3)CC2)cc1,6,.,.,-0.4,.,
COC(=O)Cc1ccc(NC(=S)NCCO)cc1,-5,.,.,-0.2,-7%,
COCCNc1nc(-c2ccccc2)nc2ccccc12,7,.,-2,3.2,0%,
CNc1ncc(C(=O)C(C)(C)C)s1,-6,1,12,0.9,-8%,
CCOC(=O)C1C(c2ccccc2)C(C(=O)OCC)C1c1ccccc1 (configuration not stated),6,-25,-3,2.1,-14%,
CC(C)(C)NC(=O)COC(=O)c1ccc(NC(=O)CC#N)cc1,0,.,5,6.8,-8%,
Cc1cc(N=NC(=O)c2ccccc2O)c2ccccc2c1O,5,.,20,2.0,1%,
Cc1ccnc(NC(=O)Nc2ccc3c(c2)OCO3)c1,-8,.,-9,-4.6,2%,
Cc1ccccc1CSc1nnc(C)c(=O)[nH]1,1,-32,5,-1.1,-8%,Arbovirus anti repeat=3
COC(=O)C1C(=O)C2=C(CC1C)Nc1ccccc1NC2c1cccs1 (configuration not stated),-7,.,1,2.7,1%,
CC(=O)c1ccc(NC(=O)c2ccc3c(Cl)c4c(nc3c2)CCCC4)cc1,1,-32,-5,-0.1,-6%,
CN(C(=O)C1CCOC1)c1nnc(-c2cccnc2)s1 (configuration not stated),-5,5,3,0.0,-7%,
CCOc1ccc(/C=C2\SC(=S)N(NS(=O)(=O)c3ccc(C)cc3)C2=O)cc1OC,1,.,.,4.7,-11%,
COCCNC(=O)c1ccccc1-c1nc(-c2ccccc2Cl)no1,0,-43,2,0.2,1%,
Nc1ccccc1C(=O)NNC(=O)C(=O)/C=C(\O)c1ccccc1,88,.,.,7.1,56%,
Cn1nnnc1SCC(=O)NNC(=O)c1ccc(Br)cc1,4,.,3,-2.2,-2%,
COc1ccc(S(=O)(=O)N2CCC3(CC2)CC(=O)c2ccccc2O3)cc1,-8,.,.,-0.1,.,
Cc1ccc(C)c(OCC(=O)Nc2cccc(S(=O)(=O)NC3=NCCCCC3)c2)c1,-2,.,.,-0.6,.,
COc1cc(CN(C)Cc2cc(=O)oc3cc(C)c(Cl)cc23)ccc1OC(F)F,2,.,.,-1.0,.,
O=c1c2ccccc2nc(/C=C/c2ccc(Br)cc2)n1CCCO,5,.,.,-40,.,
CCc1cc(-c2nc(N)ncc2-c2csc(C)n2)c(O)cc1OC,-8,.,-4,-1.2,5%,
Cc1ccc(NC(=O)c2ccccc2NS(=O)(=O)c2ccc(Cl)s2)cc1,7,-27,-9,1.1,2%,
C=CCn1c(SCCC)nc2sc3c(c2c1=O)CCc1ccccc1-3,8,-14,3,-6.3,5%,
O=C(CCCN1C(=O)C2CC=CCC2C1=O)Nc1ccccc1Cl (configuration not stated),-3,.,.,12,.,
# The list goes on:
SMILES,Mtb betalactam,YopH inh,Arbovirus anti,RecA intein inh,Mtb H37Rv,others
O=C(NCc1ccccc1)c1cc(=O)nc2sc(-c3ccccc3)nn12,.,-34,4,.,-8%,
Cc1cccc2sc(N(CCN(C)C)C(=O)c3cc(Cl)sc3Cl)nc12,0,-14,-2,3.5,0%,
CCN(CC)C1CCN(C(=O)CCc2nnc(CCc3ccccc3)o2)C1 (configuration not stated),-7,.,12,0.3,0%,
CCCCn1c(SCC(=O)N2CCOCC2)nc2c1c(=O)n(C)c(=O)n2C,10,.,.,-1.3,.,
O=C(N/N=C/c1ccc2nccnc2c1)c1cccc([N+](=O)[O-])c1,-7,.,2,0.3,-4%,
COc1ccc(C)cc1S(=O)(=O)N1CC(C)OC(C)C1 (configuration not stated),-5,.,-4,-5.7,-4%,
CCC(C)Nc1nc(N)c([N+](=O)[O-])c(Nc2ccccc2OC)n1 (configuration not stated),69,.,.,-1.9,5%,
CCOP(=O)(OCC)/C(C#N)=C(\O)c1ccc(OC)cc1,-5,.,.,1.1,2%,
O=C1N(Cc2cccc(Cl)c2)C[C@@H]2C[C@@H](c3c[nH]c4ccccc34)N3CCC[C@@]123,6,.,9,14,3%,
COc1c(C)cccc1C(=O)NCCCNC(=O)c1ccc(C)nc1,1,.,.,3.2,.,
NC(=O)C1=CN(Cc2ccc(Cl)cc2)CCC1C(F)(F)F (configuration not stated),0,.,.,2.8,-9%,
CC(Sc1nncn1C)C(=O)Nc1nnc(C(C)C)s1 (configuration not stated),-1,-36,2,6.8,1%,
CCCCN(C(=O)CNC(=O)c1ccco1)C(C(=O)NC1CCCC1)c1ccc(OC)cc1 (configuration not stated),-8,-11,-3,0.0,0%,
CC(C)(C)c1ccc(C(=O)CS(=O)(=O)c2ccccc2)cc1,-6,-38,1,3.6,21%,
COc1cc(C(=O)O)ccc1Cl,-5,.,.,-1.0,0%,
Cc1cccn2c(=O)c3cc(C(=O)NC4CCCCC4)n(C)c3nc12,4,.,.,-5.0,.,
COc1cc([N+](=O)[O-])ccc1NC(=O)NCc1ccccn1,-18,.,.,-1.8,.,
O=c1oc2ccccc2c(O)c1/C=N/c1ncccn1,8,.,.,3.2,4%,
Cc1ccc(-n2c(C)c(C)c3c(NCCCO)ncnc32)cc1,-2,.,.,-0.2,.,
CSc1ccc(CN2CCC(n3nccc3NC(=O)c3ccccc3C)CC2)cc1,0,.,.,0.2,.,
O=C(NCc1ccc(F)cc1)C(c1ccccc1)N(C(=O)c1csnn1)C1CCCC1 (configuration not stated),-3,.,.,-0.6,.,
Cc1cc(C)cc(NC(=O)CSc2ccc(-c3ccco3)nn2)c1,8,-30,-5,7.6,64%,

# Fetched by structure from the entries so far:
SMILES,Mtb betalactam,YopH inh,Arbovirus anti,RecA intein inh,Mtb H37Rv,others
COc1cc([N+](=O)[O-])ccc1NC(=O)NCc1ccccn1,-18,.,.,-1.8,.,
COc1c(C)cccc1C(=O)NCCCNC(=O)c1ccc(C)nc1,1,.,.,3.2,.,

# Among those listed so far, these contain a furan ring, fused or not:
SMILES,Mtb betalactam,YopH inh,Arbovirus anti,RecA intein inh,Mtb H37Rv,others
O=C(Nc1ccccc1O)c1ccc(C(=O)c2ccccc2)o1,-2,.,.,0.0,.,
COc1ccc(/C=C(/NC(=O)c2ccco2)C(=O)N2CCCC2=O)cc1,-5,.,1,2.7,-1%,
Cc1ccc(/C=N/n2c(C)nnc2C)o1,0,-29,-1,-1.8,-6%,
CC(=O)c1ccc(N2CCN(C(=O)c3ccco3)CC2)c(F)c1,0,-9,-3,-1.1,1%,
CCCCN(C(=O)CNC(=O)c1ccco1)C(C(=O)NC1CCCC1)c1ccc(OC)cc1 (configuration not stated),-8,-11,-3,0.0,0%,
Cc1cc(C)cc(NC(=O)CSc2ccc(-c3ccco3)nn2)c1,8,-30,-5,7.6,64%,
